# Vaccinia stage = Vaccinia orthopox stage-specific inhibition. Vaccinia-infected cells, mCherry/Venus stage reporter fluorescence; stronger effect = lower value; some inactives read as strong as hits. activity change (mCherry), % (concentration not given with the values). 89,000 compounds, 0.01% hits. AID 1053133;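 active = mCherry past -33% and 40 or more points under the early reporter, replicates agreeing; inconclusive = past -33% without that gap or agreement; tested in A549 cells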;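 note: scaled between vehicle wells and reference inhibitor wells; 23 nL library stock went into each well; one replicate is shown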
# Vaccinia stage Venus = also measured in Vaccinia stage; calls as there; activity change (Venus), %; measured here: Venus reporter, other viral stage;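 negative = less Venus signal; first of two replicates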
# An asterisk follows results filed as active; u = inconclusive; x = no result given; & = joins results of further samples. Some of the compounds tested (hit frequency here may not be typical).
SMILES,Vaccinia stage,Vaccinia stage Venus
C[C@H](O)C#Cc1cnc2c(c1)C(=O)N([C@@H](C)CO)C[C@@H](C)[C@H](CN(C)Cc1ccccn1)O2,23,11
CCC(=O)N(C)C[C@H]1Oc2cc(C#Cc3cccnc3)ccc2S(=O)(=O)N([C@@H](C)CO)C[C@@H]1C,3,2
C[C@@H]1CN([C@@H](C)CO)C(=O)c2cc(NC(=O)Nc3ccccc3)ccc2O[C@@H](C)CCCCO[C@@H]1CN(C)CC1CCCCC1,u,x
COc1ccc(S(=O)(=O)N(C)C[C@H]2OCCCC[C@H](C)Oc3ccc(NS(=O)(=O)c4ccc(Cl)cc4)cc3C(=O)N([C@H](C)CO)C[C@H]2C)cc1,-13,-4
O=C(C[C@H]1CC[C@H]2[C@@H](COC[C@H](O)CN2S(=O)(=O)c2ccc(F)cc2)O1)NCC1CC1,16,14
Cc1ccc(-c2ccc([C@@H]3[C@@H](CO)N4C(=O)CN(C(=O)c5ccc(F)cc5)C[C@H]34)cc2)cc1,u,x
CO[C@@H]1CN(C)C(=O)c2cc(NC(=O)c3ccc(F)cc3)ccc2OC[C@H](C)N(C(C)=O)C[C@H]1C,10,4
C[C@H](CO)N1C[C@H](C)[C@@H](CN(C)C(=O)Nc2ccc(F)cc2)OCCCC[C@H](C)Oc2ccc(NS(=O)(=O)c3ccccc3)cc2C1=O,-12,-15
O=C(c1ccccc1)N1CC[C@@H]2[C@H](CO)Nc3ccc(C#Cc4cccnc4)cc3[C@@H]21,4,4
C/C=C/c1cnc2c(c1)C(=O)N([C@@H](C)CO)C[C@H](C)[C@@H](CN(C)S(=O)(=O)c1ccccc1F)O2,-6,-11
Cc1ccc(S(=O)(=O)N(C)C[C@H]2OCCCC[C@H](C)Oc3ccc(NS(=O)(=O)c4ccc(F)cc4)cc3C(=O)N([C@@H](C)CO)C[C@H]2C)cc1,-35,-21
C[C@H](CO)N1C[C@H](C)[C@@H](CN(C)S(=O)(=O)c2cn(C)cn2)Oc2c(NC(=O)C3CC3)cccc2C1=O,13,6
C[C@H]1CN([C@@H](C)CO)C(=O)c2c(c3ccccc3n2C)-c2ccccc2CO[C@H]1CN(C)Cc1ccccc1,u,x
C#CCNC(=O)C1=C[C@@H](c2ccc3c(c2)OCO3)C[C@@H](OCCCCO)O1,16,12
O=C(C[C@@H]1C=C[C@H](NS(=O)(=O)c2ccccc2)[C@H](CO)O1)NCc1ccncn1,12,9
O=C(C[C@@H]1CC[C@@H](NC(=O)Nc2cc(F)ccc2F)[C@@H](CO)O1)Nc1ccc(-c2ccccc2)cc1,-9,-7
Cc1noc(C)c1NC(=O)N(C)C[C@H]1OCCCC[C@H](C)Oc2ccc(NC(=O)CCC(F)(F)F)cc2C(=O)N([C@H](C)CO)C[C@@H]1C,22,2
C[C@H](CO)N1C[C@H](C)[C@@H](CN(C)Cc2ccccc2)OCCCC[C@H](C)Oc2ccc(NC(=O)Cc3ccccc3)cc2C1=O,-34,-22
C[C@@H]1CN([C@H](C)CO)C(=O)c2cc(-c3ccccc3F)cnc2O[C@@H]1CN(C)C(=O)C1CCOCC1,9,8
C[C@@H]1CN([C@@H](C)CO)C(=O)c2cccc(NC(=O)c3cnccn3)c2O[C@@H]1CN(C)Cc1ccc2c(c1)OCO2,-18,-5
CCC(=O)N1CC(=O)N2[C@H](CO)[C@H](c3ccc(-c4ccccc4F)cc3)[C@@H]2C1,-9,-17
CCC(=O)N(C)C[C@@H]1Oc2ncc(-c3ccc(C(=O)N(C)C)cc3)cc2C(=O)N([C@@H](C)CO)C[C@H]1C,20,12
COc1ccc(S(=O)(=O)N(C)C[C@@H]2OCCCC[C@@H](C)Oc3ccc(NC(=O)NC(C)C)cc3C(=O)N([C@H](C)CO)C[C@@H]2C)cc1,18,8
C[C@H](CO)N1C[C@H](C)[C@H](CN(C)C(=O)Nc2cccc3ccccc23)Oc2c(NC(=O)C3CCOCC3)cccc2C1=O,25,22
O=C(C[C@H]1CC[C@@H](NC(=O)c2cccc(F)c2)[C@@H](CO)O1)NCc1ccc(Oc2ccccc2)cc1,u,x

# 4 neighbouring compounds from above:
SMILES,Vaccinia stage,Vaccinia stage Venus
CCC(=O)N(C)C[C@@H]1Oc2ncc(-c3ccc(C(=O)N(C)C)cc3)cc2C(=O)N([C@@H](C)CO)C[C@H]1C,20,12
COc1ccc(S(=O)(=O)N(C)C[C@@H]2OCCCC[C@@H](C)Oc3ccc(NC(=O)NC(C)C)cc3C(=O)N([C@H](C)CO)C[C@@H]2C)cc1,18,8
C[C@H](CO)N1C[C@H](C)[C@H](CN(C)C(=O)Nc2cccc3ccccc23)Oc2c(NC(=O)C3CCOCC3)cccc2C1=O,25,22
O=C(C[C@H]1CC[C@@H](NC(=O)c2cccc(F)c2)[C@@H](CO)O1)NCc1ccc(Oc2ccccc2)cc1,u,x

# Next part:
SMILES,Vaccinia stage,Vaccinia stage Venus
CCc1cnc(N2[C@H](C#N)[C@H](c3ccc(C#CCC4CCCC4)cc3)[C@H]2CO)s1,u,x
N#C[C@H]1[C@@H](c2ccc(C#Cc3ccc(F)cc3)cc2)[C@H](CO)N1C(=O)C1CCCC1,u,x
CCC(=O)N1CC2(C1)[C@H](c1ccc(-c3ccccc3)cc1)[C@@H](CO)N2S(C)(=O)=O,-27,-15
C[C@H]1CN([C@@H](C)CO)C(=O)c2c(c3ccccc3n2C)-c2ccccc2CO[C@@H]1CN(C)C(=O)c1cc(Cl)cc(Cl)c1,u,x
O=C(CN1CCOCC1)N[C@H]1CC[C@@H](CCNC(=O)C2CCCC2)O[C@@H]1CO,1,11
Cc1ccccc1S(=O)(=O)N1CC[C@@H]2[C@@H](CO)Nc3ccc(-c4cccc(F)c4)cc3[C@@H]21,u,x
C[C@H](CO)N1C[C@H](C)[C@@H](CN(C)S(=O)(=O)c2ccccc2)Oc2c(NC(=O)c3ccc(-c4nccs4)cc3)cccc2C1=O,17,18
C[C@H](O)C#Cc1ccc2c(c1)O[C@H](CN(C)C(=O)C1CC1)[C@@H](C)CN([C@H](C)CO)S2(=O)=O,29,11
N#C[C@H]1[C@H](c2ccc(-c3cccc(F)c3)cc2)[C@H](CO)N1C(=O)CN1CCOCC1,6,1
N[C@@H]1CC[C@H](CCn2cc(-c3ccccn3)nn2)O[C@H]1CO,-3,-4
COc1ccc(CN(C)C[C@H]2OCCCC[C@H](C)Oc3ccc(NC(=O)Nc4ccc(F)cc4)cc3C(=O)N([C@H](C)CO)C[C@H]2C)cc1,u,x
COC(=O)C[C@H]1CC[C@H]2[C@@H](COc3ccc(NC(=O)c4ccc(F)c(F)c4)cc3C(=O)N2C)O1,-5,-1
CCCNC(=O)Nc1ccc2c(c1)OC[C@H](C)N(CCC)C[C@H](C)[C@H](OC)CN(C)C2=O,12,13
COc1ccc(NC(=O)N(C)C[C@@H]2Oc3ccc(NC(=O)Cc4ccccc4)cc3C(=O)N([C@H](C)CO)C[C@H]2C)cc1,10,8
C[C@H]1CN([C@@H](C)CO)C(=O)c2cc(C#CC3CCCC3)cnc2O[C@@H]1CN(C)C(=O)C1CCCCC1,-7,-19
COc1ccc(NC(=O)N(C)C[C@@H]2Oc3ccc(NS(=O)(=O)c4ccc(Cl)cc4)cc3CC(=O)N([C@@H](C)CO)C[C@@H]2C)cc1,25,3
C[C@H](CO)N1C[C@H](C)[C@H](CN(C)S(=O)(=O)c2ccccc2)OCCCC[C@H](C)Oc2ccc(NC(=O)C3CCCCC3)cc2C1=O,-23,-21
COc1ccc(NC(=O)N(C)C[C@H]2Oc3ccc(NS(=O)(=O)c4c(C)noc4C)cc3C(=O)N([C@H](C)CO)C[C@H]2C)cc1,12,8
O=C(C1CCCC1)N1CC2(C1)[C@H](c1ccccc1)[C@@H](CO)N2CC1CCCC1,10,9
COc1ccc(S(=O)(=O)N[C@@H]2CC[C@@H](CCn3cc(-c4ccccc4F)nn3)O[C@H]2CO)cc1,-4,-8
C[C@@H]1CN([C@@H](C)CO)C(=O)c2cc(C#CC3(O)CCCC3)cnc2O[C@H]1CN(C)S(=O)(=O)c1cccc(F)c1,12,2
CO[C@@H]1CN(C)C(=O)c2ccc(NC(=O)C3CCCC3)cc2OC[C@H](C)N(C(C)=O)C[C@H]1C,-1,4
O=C(C[C@@H]1C[C@H]2c3cc(NC(=O)NC4CCCCC4)ccc3O[C@H]2[C@H](CO)O1)NCC(F)(F)F,12,11
COc1ccc(NC(=O)N(C)C[C@H]2Oc3ccc(NC(=O)CCC(F)(F)F)cc3CC(=O)N([C@@H](C)CO)C[C@@H]2C)cc1,8,-1
C[C@H]1CN([C@@H](C)CO)C(=O)c2cc(C#Cc3ccccc3F)cnc2O[C@H]1CN(C)C(=O)C1CCC1,7,0

# (list continues)
SMILES,Vaccinia stage,Vaccinia stage Venus
O=C(C[C@H]1CC[C@@H](NC(=O)NC2CCCCC2)[C@H](CO)O1)NCc1ccccc1,17,31
O=C(NCC[C@@H]1CC[C@H](NS(=O)(=O)c2cccc(F)c2)[C@H](CO)O1)C1CCCC1,-11,3
C/C=C/c1ccc(C2[C@@H]3CN(C(=O)C4CCOCC4)C[C@H]2N3)cc1 (stereo partly drawn),0&4,9&1
CCC(=O)N(C)C[C@H]1Oc2cc(C#CC(C)(C)O)ccc2S(=O)(=O)N([C@@H](C)CO)C[C@@H]1C,17,9
CO[C@@H]1CN(C)C(=O)c2cc(NC(=O)C3CCOCC3)ccc2OC[C@@H](C)N(Cc2nccs2)C[C@H]1C,0,-3
C[C@H](CO)N1C[C@H](C)[C@H](CN(C)C(=O)C2CCCCC2)OCc2cnnn2CCCC1=O,15&-3,13&-1
C[C@H]1CN([C@@H](C)CO)C(=O)CCCn2nncc2CO[C@@H]1CN(C)C(=O)c1ccncc1,1,1
CN(C)C(=O)c1ccc(-c2ccc3c(c2)[C@@H]2[C@@H](CCN2S(=O)(=O)c2cn(C)cn2)[C@H](CO)N3)cc1,0,-6
CCC(=O)N1C[C@@H](O)COC[C@@H]2O[C@H](CC(=O)NC)CC[C@H]21,3,6
O=C(C[C@@H]1CC[C@H]2[C@@H](COC[C@@H](O)CN2Cc2cccc(Cl)c2)O1)NCc1cccc(F)c1,-20,-17
COC(=O)[C@H]1[C@H](CO)[C@H]2Cn3c(ccc(C4=CCCC4)c3=O)[C@H]2N1C(=O)Cc1cccnc1,13,18
CO[C@H]1CN(C)C(=O)c2ccc(NC(=O)C3CCCCC3)cc2OC[C@@H](C)N(C)C[C@H]1C,1,-1
CN1c2ccc(-c3ccc(F)cc3)cc2[C@H]2[C@H](CCN2S(=O)(=O)c2cccc(F)c2)[C@@H]1CO,u,x
C[C@H](CO)N1C[C@H](C)[C@H](CN(C)C(=O)Nc2ccc3c(c2)OCO3)OCCCC[C@H](C)Oc2ccc(NC(=O)c3ccccc3)cc2C1=O,-18,-17
COc1ccc(OC(=O)N(C)C[C@H]2OCc3ccccc3-c3c(n(C)c4ccccc34)C(=O)N([C@H](C)CO)C[C@@H]2C)cc1,u,x
O=C(C[C@H]1CC[C@@H](NC(=O)c2ccc(F)cc2)[C@@H](CO)O1)NCc1ccncn1,11,6
C[C@H]1CN([C@@H](C)CO)C(=O)c2cc(-c3cccc(F)c3)cnc2O[C@H]1CN(C)S(=O)(=O)c1cccc(F)c1,-1,-14
CN(C)CC(=O)N[C@@H]1CC[C@H](CCn2cc(C3CCCC3)nn2)O[C@H]1CO,7,15
C[C@@H]1CN([C@@H](C)CO)C(=O)Cc2cc(NS(=O)(=O)c3cn(C)cn3)ccc2O[C@@H]1CN(C)C(=O)Nc1ccc(C(F)(F)F)cc1,13,6
C[C@H]1CN([C@@H](C)CO)S(=O)(=O)c2ccc(C#CC3CC3)cc2O[C@H]1CN(C)Cc1cccnc1,-6,-19
CNC[C@H]1Oc2cc(C#CCN(C)C)ccc2S(=O)(=O)N([C@@H](C)CO)C[C@@H]1C,4,5
CCCNC(=O)N1CC2(CCN(S(=O)(=O)c3ccccc3)CC2)c2c(n(C)c3cc(OC)ccc23)[C@@H]1CO,-9,-7
CCC(=O)N1CC(=O)N2[C@H](CO)[C@@H](c3ccc(-c4cccnc4)cc3)[C@@H]2C1,18,1
CN1C(=O)c2cc(NC(=O)c3cnccn3)ccc2OC[C@H]2O[C@@H](CC(=O)O)CC[C@H]21,1,-4
C[C@H]1CN([C@@H](C)CO)C(=O)c2cccc(NS(C)(=O)=O)c2O[C@H]1CN(C)S(=O)(=O)c1cccs1,28,12

# Other results.
SMILES,Vaccinia stage,Vaccinia stage Venus
CCCC#Cc1ccc([C@@H]2[C@H]3CN(Cc4cncnc4)CCCCN3[C@H]2CO)cc1,-15,-9
O=C(O)[C@@H]1[C@@H](CO)[C@@H]2Cn3c(ccc(-c4ccccc4)c3=O)[C@H]1N2C(=O)C1CCCCC1,-9,-6
CO[C@H]1CC[C@@H]2CCOc3c(C#N)cccc3C(=O)N(C)CCCC(=O)N(C)C[C@H]1O2,3,0
C[C@H](CO)N1C[C@H](C)[C@@H](CN(C)CC2CC2)Oc2ccc(NS(C)(=O)=O)cc2CC1=O,10,8
COc1ccc(C#Cc2cnc3c(c2)C(=O)N([C@H](C)CO)C[C@H](C)[C@H](CN(C)C(C)=O)O3)cc1,13,9
Cc1noc(C)c1S(=O)(=O)Nc1ccc2c(c1)CC(=O)N([C@H](C)CO)C[C@@H](C)[C@@H](CN(C)S(=O)(=O)c1ccc(Cl)cc1)O2,4,5

# 6 records picked at random from the list so far, as already listed:
SMILES,Vaccinia stage,Vaccinia stage Venus
CCCC#Cc1ccc([C@@H]2[C@H]3CN(Cc4cncnc4)CCCCN3[C@H]2CO)cc1,-15,-9
O=C(C[C@@H]1C=C[C@H](NS(=O)(=O)c2ccccc2)[C@H](CO)O1)NCc1ccncn1,12,9
COc1ccc(NC(=O)N(C)C[C@@H]2Oc3ccc(NC(=O)Cc4ccccc4)cc3C(=O)N([C@H](C)CO)C[C@H]2C)cc1,10,8
C[C@H](CO)N1C[C@H](C)[C@H](CN(C)C(=O)C2CCCCC2)OCc2cnnn2CCCC1=O,15&-3,13&-1
C[C@H](CO)N1C[C@H](C)[C@@H](CN(C)CC2CC2)Oc2ccc(NS(C)(=O)=O)cc2CC1=O,10,8
C/C=C/c1cnc2c(c1)C(=O)N([C@@H](C)CO)C[C@H](C)[C@@H](CN(C)S(=O)(=O)c1ccccc1F)O2,-6,-11
